Screening results from PubChem.
VCAM-1 up: enhancers of VCAM-1 display on endothelial cells, cell-based, plate reader, pooled HUVEC, TNFa stimulus (AID 455); HUVEC TNFa-induced VCAM-1 immunofluorescence, plate reader; numbers were filed only for top-ranked candidate wells; augmentation, % at 5 µM; 10,000 compounds, 0.2% hits;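 active = a compound raising TNF-alpha-driven VCAM-1 surface staining, with its hit status upheld on visual or statistical review; inactive = the rest, including hits rejected on review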;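 note: 0% = TNFa with vehicle and 100% = strongest image-checked hit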
Proteasome disasm: blocks ATP-dependent breakdown of the yeast 26S proteasome; inhibition of disassembly, % (test concentration not listed); AID 751; 24,000 compounds, 0.2% hits; anti-FLAG beads, GFP-proteasome disassembly, flow cytometry;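 active = above 40%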;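 note: plate controls were ATP control with full disassembly for no effect and ATP-gamma-S intact proteasomes for full effect; higher percent means more bead fluorescence retained so stronger block of disassembly; stock transfer was 100 nL into about 10 µL; wells with too few beads may also be inconclusive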
An asterisk follows results filed as active; i = inactive; / = no result given. Not all compounds are listed; rates above refer to the full screens.

SMILES	VCAM-1 up	Proteasome disasm
COc1ccc(C(=O)N2CCN(S(=O)(=O)c3ccc(C)cc3C)CC2)cc1OC	/	0.3
Cc1ccc(S(=O)(=O)N(C)CC(=O)NC2CC(C)(C)NC(C)(C)C2)cc1	i	1.8
CC(=O)c1cccc(-n2nnnc2SCC(=O)N2CCCC2)c1	i	-1.8
O=C(c1ccccc1-c1ccccc1)N1CCN(c2ccccn2)CC1	i	0.2
c1ccc(Cn2ncc3c2ncn2c(-c4ccncc4)nnc32)cc1	i	1.1
COC(=O)c1ccc(NC(=O)C2C3CCC(C3)C2C(=O)O)cc1 (stereo unspecified)	i	0.4
CC(C)(C)OC(=O)N1CCOCCOCCN(C(=O)OC(C)(C)C)CCOCCOCC1	i	1.0
COc1ccc(C(=O)N2CCN=C2SCc2cccnc2)c(OC)c1	/	4.4
CCOC(=O)N1CCN(C(=O)c2cnc3n(c2=O)CCS3)CC1	/	0.2
CC(=O)N1CCc2cc(S(=O)(=O)NC(CC(C)C)C(=O)Nc3cc(C(=O)O)ccc3C)ccc21 (stereo unspecified)	/	-3.0
CC(C)OC(=O)CCCN1C(=O)c2ccc(N)cc2C1=O	/	0.8
Cc1csc(NC(=O)CN(C)S(=O)(=O)c2cccc3cccnc23)n1	/	0.3
CCCOc1ccc(N2C(=O)CC(NCCCN3CCC(C(N)=O)CC3)C2=O)cc1 (stereo unspecified)	i	-1.0
CCN(CC)CCCNC(=O)C1c2ccccc2C(=O)N(C)C1c1ccc(OC)cc1 (stereo unspecified)	/	-0.8
O=C(Nc1cnn(Cc2ccc(F)cc2)c1)c1cc(-c2cccs2)on1	/	-0.3
Cc1n[nH]c(C)c1S(=O)(=O)N1CCCC(C(=O)NC2CCCc3ccccc32)C1 (stereo unspecified)	/	0.7
O=C(c1ccc(S(=O)(=O)N2CCOCC2)cc1)N(c1ccccc1)C1C=CS(=O)(=O)C1 (stereo unspecified)	/	-0.5
Oc1c(Cl)cc(Cl)cc1CNc1ccc(Br)cn1	i	1.1
Cc1cccc(N(C)S(=O)(=O)c2ccc3[nH]c(=O)c(=O)[nH]c3c2)c1	/	-1.6
CCN1C(=O)c2ccccc2S(=O)c2ccc(C(=O)N3CCCC3)cc21 (stereo unspecified)	/	-0.1
CCOc1ccc(S(=O)(=O)N(C)C)cc1-c1nc2c(C(C)(C)C)nn(C)c2c(=O)[nH]1	i	-4.7
COc1ccc(-c2nc(C)sc2CC(=O)O)cc1	i	0.5
CCOc1ccccc1NC(=O)C1CCCN1C(=O)OCc1ccccc1 (stereo unspecified)	i	0.1
O=C(CCS(=O)(=O)c1ccc(Br)cc1)N1CCN(c2ccccc2F)CC1	/	1.9
COCCCNC(=O)CCCn1c(=O)c2ccccc2n(CC(=O)Nc2c(C)cccc2C)c1=O	i	-0.4
COc1ccc(S(=O)(=O)Cc2ccc(C(=O)N3CCOCC3)o2)cc1	i	-2.5
CC(=O)Nc1ccc(NS(=O)(=O)C(F)(F)F)cc1	i	-0.2
COc1ccc(CNC(=O)C2CC(c3ccc(F)cc3)=NO2)cc1 (stereo unspecified)	/	-0.1
CCN(CCCNC(=O)CCNC(=O)Cn1ccc2ccccc2c1=O)c1ccccc1	i	0.2
Cc1ccc(-c2nnc3n2N=C(c2ccc(Br)cc2)CS3)cc1	/	0.8
O=C(CCCN1C(=O)c2ccccc2C1=O)Oc1ccc(F)cc1	i	-0.9
NS(=O)(=O)c1cc2c(cc1Cl)NCNS2(=O)=O	i	-0.5
Cc1cc(NC(=O)C2COc3ccccc3O2)no1 (stereo unspecified)	/	-0.1
COCCCNC(=O)CN1C(=O)CSc2ncccc21	/	0.1
CCOc1cc(S(=O)(=O)Nc2ccccn2)ccc1F	i	-0.3
CCOC(=O)N1CCC(NC(=O)Cc2cn(C)c3ccccc23)CC1	/	1.0
Cc1ccc(C)c(OCC(=O)Nc2cc(C)on2)c1	/	1.5
CCOC(=O)C1CCCN(C(=O)c2ccc(CS(=O)(=O)Cc3ccccc3C)o2)C1 (stereo unspecified)	i	-0.2
O=c1sc(N2CCN(c3ccccc3F)CC2)nc2ccsc12	/	1.2
CCOC(=O)N1CCC(NC(=O)Cn2nc(Cc3ccncc3)c3ccccc3c2=O)CC1	/	-1.5
Cn1c(SCc2ccccc2)nnc1C1CCCNC1 (stereo unspecified)	i	-0.3
CCC(Sc1nc2cc3c(cc2c(=O)n1Cc1ccco1)OCO3)C(=O)Nc1cccc(OC)c1 (stereo unspecified)	/	-1.5
COc1cccc(Nc2c(F)c(F)c(F)c(F)c2C(=O)O)c1	i	-0.3
O=C(Nc1ccn(Cc2ccc(F)cc2)n1)c1ccncc1	/	-1.2
CC(C)C(NC(=O)OC(C)(C)C)C(=O)N1CCCC1C(=O)NC(Cc1ccccc1)C(N)=O (stereo unspecified)	/	4.2
CN(CCCNC(=O)C1CCC(=O)N1Cc1ccc(F)cc1)c1ccccc1 (stereo unspecified)	/	-0.6
CCc1c(C)sc(NC(=O)c2cc(C3CC3)on2)c1C#N	/	-1.4
CCOC(=O)c1c(C)c(C(=O)N2CCCCCC2)c(C)n1C	/	3.2
Cc1cc(C)c2c(=O)[nH]n(C3CCOC(C)(C)C3)c2n1 (stereo unspecified)	/	2.6
CCC(C)NC(=O)C1CCN(C(=O)N(C)C)CC1 (stereo unspecified)	/	-2.0
Additional records:
SMILES	VCAM-1 up	Proteasome disasm
Nc1nonc1-c1noc(COc2ccccc2Cl)n1	/	-1.4
CCCCOc1ccc(C(=O)Nn2cnnc2)cc1	i	-0.2
CCN(CC)c1ccc(NC(=O)c2nc3nc(C)cc(C(F)F)n3n2)cc1	i	-1.2
CSc1nc(-c2ccccc2O)nc(-c2ccccc2O)n1	/	0.4
Cc1cc2cc(CCNC(=O)c3ccc(S(=O)(=O)N4CCOCC4)cc3)c(=O)[nH]c2cc1C	/	1.9
CCCS(=O)(=O)N1CCCC(C(=O)N2CCN(C(=O)OCC)CC2)C1 (stereo unspecified)	/	-1.3
O=C(CSc1ncccc1C(=O)O)NCCC1=CCCCC1	/	-0.3
Cc1cc(C(=O)COC(=O)CCc2nc3ccccc3s2)c(C)n1C	i	-1.0
CCOC(=O)Nc1c(C)n(C)n(-c2ccccc2)c1=O	/	-1.3
CN(C)c1ccc(CNC(=O)CN(C)S(=O)(=O)c2cccc3cccnc23)cc1	/	0.0
O=C(NCC(c1cccnc1)N1CCOCC1)Nc1ccccc1 (stereo unspecified)	/	0.0
CC1CN(Cc2nc3c(c(=O)[nH]c(=O)n3C)n2CCN2CCOCC2)CC(C)O1 (stereo unspecified)	/	2.2
COC(=O)C1=C(NC(=O)c2cccs2)CCS1	/	-0.5
COc1ccc(C2CC(=O)c3cnc(NC(=O)c4ccccc4)nc3C2)cc1OC (stereo unspecified)	/	-1.7
COc1ccc(OC)c(C2C3=C(CCCC3=O)Nc3c2c(=O)n(C)c(=O)n3C)c1 (stereo unspecified)	i	-1.5
Cc1cc(C)nc(N2CCC(C(=O)NCc3cccc(C(F)(F)F)c3)CC2)n1	i	1.0
CCOc1ccc(OCC)c(NC(=O)C2CCCN(S(=O)(=O)c3c(C)n[nH]c3C)C2)c1 (stereo unspecified)	/	3.0
CCC(=O)Nc1ccc(Cl)c(NC(=O)C(C)C)c1	i	-0.8
Cc1ccc(C(=O)NC2CC3CCCC(C2)N3C(=O)NC2CCCCC2)cc1 (stereo unspecified)	i	-0.8
Cc1ccccc1C1CC(c2ccc(Br)cc2)Nc2nc(N)nn21 (stereo unspecified)	/	-1.1
CSc1ccccc1NC(=O)c1c(Br)cnn1C	i	-1.9
Cn1cc(CC(=O)Nc2cccc(C#N)c2)c2ccccc21	i	0.4
CCCCN(C)C(=O)CS(=O)(=O)Cc1nc(-c2cccc(OC)c2)oc1C	i	0.3
Cc1cccc(CSC2=NCCN2C(=O)c2ccc(Br)o2)c1	/	0.1
COCCNC(=O)c1noc2c1CCc1cc(OC)ccc1-2	/	0.1
C=CCn1c(SCC(=O)C(C)(C)C)nnc1-c1ccccn1	i	2.0
COCCOC(=O)C1=C(C)NC(=O)N(C(C)=O)C1c1ccc(Cl)cc1 (stereo unspecified)	/	0.7
CN(c1ccccc1C(=O)N1CCN(c2cccc(Cl)c2)CC1)S(C)(=O)=O	i	-1.1
CCCC(=O)Nc1ccc(C(=O)O)cc1NC(=O)CCC	i	0.6
Cc1cccc(-n2c(=O)cc(N3CCN(c4ccc(F)cc4)CC3)[nH]c2=O)c1	i	0.8
COc1ccc2c(c1)CCc1c(C(=O)NCc3ccc(F)cc3)noc1-2	/	0.7
Cc1ccc(-n2cnnn2)c2cccnc12	i	0.3
O=C(Cn1cc2c(n1)CCCC2)NCc1cccc(Cl)c1	/	0.1
CC1CCN(CCn2c(=S)[nH]c3ncccc3c2=O)CC1	i	-0.4
CCc1ccc2oc(-c3cc(N)ccc3Cl)nc2c1	i	-0.2
CC1CCCCC1NC(=O)CC1Oc2ccccc2NC1=O (stereo unspecified)	/	-1.9
CC(C)N(C(=O)COC(=O)c1ccc(O)cc1)C(C)C	i	1.3
Cc1ccc(Cl)cc1-n1c(=O)cc(N2CC(C)OC(C)C2)[nH]c1=O (stereo unspecified)	/	-0.7
CCOc1ccc(Cl)cc1S(=O)(=O)N1CCCC1	i	0.0
Cc1ccccc1CNC(=O)Nc1cccs1	/	0.2
NC1(N)OC(CN2C(=O)c3ccccc3C2=O)CS1 (stereo unspecified)	/	0.2
Cc1nc(C)c(C(=O)C2=C(O)C(=O)N(CCN3CCOCC3)C2c2cccnc2)s1 (stereo unspecified)	i	2.0
COc1cc(CN(C)CCc2ccccn2)cc(OC)c1OC	/	0.0
COc1ccccc1C(=O)N1CCCC(c2nc(-c3cc(OC)c(OC)c(OC)c3)no2)C1 (stereo unspecified)	i	-0.8
COc1cccc(C(=O)NCc2nnc(SCC(=O)Nc3nccs3)n2-c2ccccc2)c1	i	-0.2
COc1ccc(C2C(C#N)=C(C)NC3=C2C(=O)CC(C)(C)C3)c(OC)c1 (stereo unspecified)	i	-1.4
CCOC(=O)N1CCN(C(=O)c2cn(CC(C)C)c(=O)c3c2c2ccccc2n3C)CC1	/	-1.1
O=C(CCCn1c(=O)[nH]c2cc(Cl)ccc2c1=O)NCCCN1CCCC1=O	/	1.1
Cc1nc2c(-c3ccccc3)c(C)[nH]n2c(=O)c1Cl	i	-3.1
CCOC(=O)c1csc(NC(=O)C2CCCCC2)n1	i	-0.5
Other structures follow.
SMILES	VCAM-1 up	Proteasome disasm
Cc1c(C(=O)NCc2cccnc2)sc2ncn(CC(=O)N3CCCCC3C)c(=O)c12 (stereo unspecified)	i	0.3
Cc1ccc(CN2CCN(CC(=O)N3CCc4ccccc4C3)C2=O)cc1	/	-0.6
COc1cc(OC)c(C2C(C(=O)O)c3ccccc3C(=O)N2C)cc1OC (stereo unspecified)	/	-0.2
COc1ccc(N2CCC(CNC(=O)Nc3ccc(C)c(C)c3)C2)cc1 (stereo unspecified)	/	-1.5
CN1CCN(c2nc(NCCOC34CC5CC(CC(C5)C3)C4)nc(OCC(F)(F)F)n2)CC1	/	4.0
CCOc1ccc(-n2c(=O)[nH]cc(C(=O)N3CCCc4ccccc43)c2=O)cc1	/	-0.9
Cc1nn(C)c(C)c1S(=O)(=O)N(CC(=O)NCc1ccco1)c1ccc(C(C)C)cc1	/	0.0
COc1ccc(NC(=O)C2C(=O)N(CCO)C3(C)CC2c2ccccc2O3)cc1 (stereo unspecified)	/	-0.2
O=C(O)CCN1C(=O)c2ccncc2C1=O	/	0.2
CC(C)CNC(=O)c1cccc(Cn2cc(Cl)cn2)c1	/	0.8
CCc1ccccc1N1CC23C=CC(O2)C(C(=O)O)C3C1=O (stereo unspecified)	i	-0.5
O=C(NCC1CCCO1)C1CCN(S(=O)(=O)c2cccnc2)CC1 (stereo unspecified)	/	-0.4
COCC(=O)OCn1nnc2ccccc2c1=O	/	1.1
CCOc1cccc(C2C(C#N)=C(N)Oc3cc(C)n(Cc4ccccn4)c(=O)c32)c1OCC (stereo unspecified)	/	1.3
CCCn1c(SCC(=O)Nc2nnc(-c3ccccc3)s2)nnc1-c1ccccn1	i	-0.4
COc1ccccc1CNC(=O)C1CCN(c2nc3ccccc3o2)CC1	/	0.8

Entries from the list above containing fluorine (15):
SMILES	VCAM-1 up	Proteasome disasm
O=C(Nc1cnn(Cc2ccc(F)cc2)c1)c1cc(-c2cccs2)on1	/	-0.3
O=C(CCS(=O)(=O)c1ccc(Br)cc1)N1CCN(c2ccccc2F)CC1	/	1.9
CC(=O)Nc1ccc(NS(=O)(=O)C(F)(F)F)cc1	i	-0.2
COc1ccc(CNC(=O)C2CC(c3ccc(F)cc3)=NO2)cc1 (stereo unspecified)	/	-0.1
O=C(CCCN1C(=O)c2ccccc2C1=O)Oc1ccc(F)cc1	i	-0.9
CCOc1cc(S(=O)(=O)Nc2ccccn2)ccc1F	i	-0.3
O=c1sc(N2CCN(c3ccccc3F)CC2)nc2ccsc12	/	1.2
COc1cccc(Nc2c(F)c(F)c(F)c(F)c2C(=O)O)c1	i	-0.3
O=C(Nc1ccn(Cc2ccc(F)cc2)n1)c1ccncc1	/	-1.2
CN(CCCNC(=O)C1CCC(=O)N1Cc1ccc(F)cc1)c1ccccc1 (stereo unspecified)	/	-0.6
CCN(CC)c1ccc(NC(=O)c2nc3nc(C)cc(C(F)F)n3n2)cc1	i	-1.2
Cc1cc(C)nc(N2CCC(C(=O)NCc3cccc(C(F)(F)F)c3)CC2)n1	i	1.0
Cc1cccc(-n2c(=O)cc(N3CCN(c4ccc(F)cc4)CC3)[nH]c2=O)c1	i	0.8
COc1ccc2c(c1)CCc1c(C(=O)NCc3ccc(F)cc3)noc1-2	/	0.7
CN1CCN(c2nc(NCCOC34CC5CC(CC(C5)C3)C4)nc(OCC(F)(F)F)n2)CC1	/	4.0
